Source: PubChem BioAssay
Bead autofluor: compound fluorescence in toxin protease inhibitor counterscreen | compound autofluorescence counterscreen, microsphere flow cytometry; active compounds read high | fluorescence intensity (no concentration beside the values) | hit rate 3.1% among 360,000 | AID 624483;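 active = at least 3 SD above the mean of all compounds, about 16000 in these data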;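 note: 100 nL of 1 mM stock went into each well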
RN4220 kill: kills Staphylococcus aureus RN4220 | hit rate 0.33% among 330,000 | S. aureus RN4220 growth, OD600, 16 h | inhibition, % (no concentration beside the values);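 active = z-score of -3 or lower and OD600 up to 0.18 on both plates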;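 note: plate controls were untreated cells for no effect and reference antibiotic for full effect; stock transfer was 100 nL into about 80 µL; one replicate is shown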
ugtP null kill: growth inhibition of S. aureus ugtP deletion strain. S. aureus RN4220 ugtP deletion, OD600 growth, 16 h; some inactives read as strong as hits. growth inhibition, % (concentration not given with the values). hit rate 0.54% among 330,000. AID 1259309;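 active = z-score under -3 and OD600 up to 0.15 on both plates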;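 note: plate controls were untreated wells for no effect and antibiotic for full effect; wells of about 80 µL received 100 nL stock; the first replicate is given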
Mtb hypoxia inh: reduces hypoxia-regulated biosensor signal in M. tuberculosis | M. tuberculosis hypoxia-regulated fluorescent reporter, fluorescence | fluorescence inhibition, % (concentration not given with the values) | hit rate 0.1% among 300,000;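 active = 35 to 45% if threefold the growth effect, above 45% if 1.5-fold the growth effect; inactive = the rest, general growth blockers included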;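 note: wells of about 50 µL received 100 nL stock; 0% = vehicle wells and 100% = reference inhibitor wells; whole bacteria with a GFP reporter of the hypoxia response; strong numbers were not always called active; many hits fall short of the cut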
PrP UTR inh: suppresses PrP 5' UTR mRNA reporter expression; cell-based PrP 5' UTR mRNA reporter, plate reader; hit rate 0.35% among 340,000; AID 488862; inhibition, % (no concentration beside the values);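 active = every replicate at 50% or more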;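 note: 0 = median of the neutral control wells; tested in H4 reporter cells; numbers are from one replicate; inactives centre near -14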
BJeLR lethal: BJeLR cell viability loss | BJeLR (HRASV12) viability, CellTiter-Glo ATP luminescence, 48 h; reference of the scale not given here | inhibition, % (no concentration beside the values) | hit rate 0.17% among 300,000;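 active = replicate mean above 50%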;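 note: 50 nL library stock added to about 25 µL; numbers are from one replicate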
Mtb hypoxia inh growth: recorded beside Mtb hypoxia inh, whose call it bears; growth inhibition, %; measured here: M. tuberculosis growth (absorbance);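 0% = vehicle and 100% = reference antibiotic; read after six days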
Active calls of the source: *; . = not tested or not shown; & = joins results of further samples.

SMILES	Bead autofluor	RN4220 kill	ugtP null kill	Mtb hypoxia inh	Mtb hypoxia inh growth	PrP UTR inh	BJeLR lethal
Cc1ccc(C(=O)CCC(=O)OCC(=O)Nc2c(C)nn(-c3ccccc3)c2C)cc1	6508	-2.3	-6	-4	8	-6	-7
COc1ccc(Cl)cc1N(CC(=O)N1CCN(Cc2ccccc2)CC1)S(C)(=O)=O	3473	5.5	1	4	4	-4	0
CCN1C(=O)N[C@@H](c2ccc(Br)cc2)C(C(C)=O)=C1C	4410	.	.	.	.	-15	1
Cc1cc([N+](=O)[O-])nn1CC(=O)Nc1cccc2nonc12	4999	.	.	.	.	-7	6
CC(C)(CNC(=O)C1CCCC1)CNC(=O)C1CCCC1	3732	-0.7	-5	3	0	5	-5
O=C(Cn1cnc2c(nnn2-c2ccc(F)cc2)c1=O)NCC1CCCO1 (stereo unspecified)	5166	2.5	10	-1	-5	-24	-2
C=CCn1c(O)c(C(CC)=Nc2ccc(NC(C)=O)cc2)c(=O)[nH]c1=O	3741	6.2	8	17	3	-16	-10
Cc1ccccc1C(=O)c1cccn1CC(=O)NC(C)c1ccccc1 (stereo unspecified)	6244	-0.4	0	-5	4	3	-1
O=C(COC(=O)c1cccc(C(=O)OCC(=O)NC2CC2)n1)NC1CC1	3256	1.5	4	-4	5	-10	-7
CCOc1ncccc1C(=O)NCc1ccccc1Cl	3404	7.4	12	9	12	-5	-6
Cc1ccc(S(=O)(=O)NNC(=O)C2COc3ccccc3O2)cc1C (stereo unspecified)	3317	4.4	1	5	8	-26	1
Cc1ccccc1C(=O)NC1CCN(C(=O)NCc2ccccc2)CC1	6623	0.3	2	-4	12	-7	-3
CCN(C(=O)CSc1nnnn1C)C1CCS(=O)(=O)C1 (stereo unspecified)	6280	2.3	2	8	3	-7	.
COc1cccc(/C=N/Nc2ccc([N+](=O)[O-])cc2)c1O	4230	.	.	.	.	-76	-4
COc1ccnc(-n2cccc2C=O)c1C#N	3358	6.7	15	12	1	-15	-3
COC(=O)/C(C(C)=O)=C(\C=C\N(C)C)N(C)C	10425	-0.6	5	13	5	-22	-3
Cc1ccc(OCCC(=O)OCC(=O)C(C)(C)C)cc1	3186	6.6	5	7	5	-3	-2
Cc1csc(NC(=O)CSc2nnc(-c3ccoc3C)n2CCc2ccccc2)n1	3779	5.1	-10	.	.	-24	13
C/C(O)=C/c1nc2ccccc2[nH]c1=O	1890	9.6	1	-3	2	-4	-5
COc1ccc(C(=O)NN/C(C)=C/C(=O)C(F)(F)C(F)(F)C(F)(F)F)cc1	2455	11	35	-3	6	-8	1
COc1ccc(/C=N/NS(=O)(=O)c2ccc(NC(C)=O)cc2)cc1	3944	.	.	.	.	-80	-1
Clc1ccc(-n2nnnc2-c2cnc(-c3ccccn3)nc2-c2cccs2)cc1	8576	2.5	-6	4	7	-14	2
CN(C)Cc1c(C(=O)N/N=C/C2CC=CCC2)nnn1-c1nonc1N (stereo unspecified)	4548	.	.	.	.	2	0
Cc1ccc(C)c(CN2CCCN(Cc3cc(C)ccc3C)S2(=O)=O)c1	3233	-6.4	30	0	-10	-13	-11
CC(C)=CCc1c(O)cc(O)c2c1OC(c1ccc(O)cc1)CC2=O (stereo unspecified)	4761	-4.0	11	.	.	-34	-5

The list goes on:
SMILES	Bead autofluor	RN4220 kill	ugtP null kill	Mtb hypoxia inh	Mtb hypoxia inh growth	PrP UTR inh	BJeLR lethal
NC(=O)CCC1NC(=O)C2CCCN2C(=O)c2cc([N+](=O)[O-])cc(I)c2NCCCC(C(N)=O)NC1=O (stereo unspecified)	.	8.1	-2	17	11	.	.
Cc1ccc(C2NC(=NCc3ccccc3)Nc3nc(C)cc(=O)n32)cc1 (stereo unspecified)	4134	4.3	4	11	3	-16	3
Cc1sc(NC(=O)CN(Cc2ccccc2)C(=O)C(C)C)c(C(N)=O)c1C	2237	6.9	4	15	7	-54	0
CCN(CC(=O)Nc1ccc(OC)cc1)C(=O)c1ccc(Cl)c(S(=O)(=O)N2CCCC2)c1	3471	2.9	5	2	-4	2	.
Cc1ccc(S(=O)(=O)n2nc(OC(=O)c3c(F)cccc3Cl)cc2N)cc1	5459	0.3	14	-1	4	-28	-20
CCN(CC)CCCn1c(=S)[nH]c2cc(C(=O)OC)ccc2c1=O	23192*	4.9	3	7	4	-5	14
CC1CN(C(=O)CSc2nc(N)cc(N)n2)CC(C)O1 (stereo unspecified)	2992	1.9	1	9	4	-4	.
O=C(Cc1cccs1)Nc1ccc(Cl)c(S(=O)(=O)N2CCOCC2)c1	.	2.1	-3	6	0	-12	.
CC(C)[C@H]1COCCS(=O)(=O)N1Cc1ccc(Cl)cc1	3893	-4.3	-4	5	8	-6	8
C=CCn1c(O)c(C(CC)=NC2CC2)c(=O)[nH]c1=O	16830*	3.9	8	10	14	0	-7
COCCCn1c(=S)[nH]c2ncccc2c1=O	3115	2.1	2	5	1	-16	6
CCOC(=O)C1=C(C)NC(=O)NC1c1ccc(OCC(=O)N2CCCCC2)cc1 (stereo unspecified)	2451	3.1	-3	-4	3	-15	-10
O=C(C1CCC(N2C(=O)C3CC=CCC3C2=O)CC1)N1CCCCC1 (stereo unspecified)	13291	5.7	10	15	4	-10	-5
CCCCOc1ccc(C2C(C(=O)c3cccs3)=C(O)C(=O)N2CCN2CCOCC2)cc1 (stereo unspecified)	3973	50	12	15	6	-29	0
COc1ccc(C(=O)N/C(=C\c2ccccc2)C(=O)Nc2cccc(C(=O)O)c2)cc1	4175	3.4	0	6	-5	-32	3
CCOc1ccccc1/C=N/Nc1nc(C)cc(=O)[nH]1	2847	.	.	.	.	-10	1
COC(=O)c1c(NC(=O)c2ccc(C)cc2)sc(Cc2ccccc2)c1C	2386	-5.5	9	.	.	-8	4
Cc1cccc2cc(COC(=O)C3CCCO3)c(=O)[nH]c12 (stereo unspecified)	3428	-19	-2	26	-17	-10	3
CC(C)C(=O)Nc1cccc(NC(=S)NC(=O)c2ccc(Cl)cc2)c1	10931	2.0	83*	1	6	-37	9
CCN(CC)CCn1c(N)c(S(=O)(=O)c2ccccc2)c2nc3ccccc3nc21	3606	2.8	8	2	7	-9	12
O=c1[nH]nc(Cc2ccc3ccccc3n2)c2ccccc12	3210	7.8	-1	12	10	-30	-7
OC(CNCCc1ccc(Cl)cc1)COc1ccc2ccccc2c1 (stereo unspecified)	3312	2.5	-9	5	-5	-18	.
CCC1(C)Cc2c(sc3nnn(Cc4ccccc4Cl)c(=O)c23)CO1 (stereo unspecified)	20244*	-1.7	29	5	10	-12	1
COc1ccc(C2N(C(=O)N3CCOCC3)CCN2S(=O)(=O)c2ccc(C)cc2)cc1 (stereo unspecified)	22397*	-0.2	1	-6	8	2	21
COC(=O)CNC(=O)C(C)(C)Oc1ccc(Cl)cc1	3490	1.9	-1	4	7	-5	0

An excerpt of these results, in markdown:
| compound | Bead autofluor | RN4220 kill | ugtP null kill | Mtb hypoxia inh | Mtb hypoxia inh growth | PrP UTR inh | BJeLR lethal |
| --- | --- | --- | --- | --- | --- | --- | --- |
| CCN1C(=O)N[C@@H](c2ccc(Br)cc2)C(C(C)=O)=C1C | 4410 | . | . | . | . | -15 | 1 |
| Cc1cc([N+](=O)[O-])nn1CC(=O)Nc1cccc2nonc12 | 4999 | . | . | . | . | -7 | 6 |
| CC(C)(CNC(=O)C1CCCC1)CNC(=O)C1CCCC1 | 3732 | -0.7 | -5 | 3 | 0 | 5 | -5 |

Next part:
SMILES	Bead autofluor	RN4220 kill	ugtP null kill	Mtb hypoxia inh	Mtb hypoxia inh growth	PrP UTR inh	BJeLR lethal
Cn1nc(C(=O)NCC(=O)Nc2ccc(F)c(F)c2F)c2ccccc2c1=O	.	4.5	0	-1	-2	-3	.
O=C(NCc1ccc2c(c1)OCO2)C1CC(=O)N(CCc2ccc(Cl)cc2)C1 (stereo unspecified)	5517	-4.4	10	-10	-18	-8	-6
CC(=O)N1CCN(c2ccc(NC(=O)/C=C/c3ccccc3)cc2)CC1	2797	.	.	.	.	-2	-2
COC(=O)c1cc2c(ccn2-c2ccc(F)cc2)n1CC(=O)N1CCN(C(=O)c2ccco2)CC1	3163	2.7	3	.	.	-12	.
O=C(Cc1csc(NC(=O)c2ccc(F)cc2)n1)NO	4208	-2.1	7	12	6	-13	14
O=C(CSc1nnnn1-c1ccccc1)NCc1cccs1	16730*	2.8	8	6	-2	-7	1
O=C(CC(c1ccccc1)c1ccco1)Nc1nccs1 (stereo unspecified)	2715	0.4	1	8	16	-39	-13
FC(c1nc2ccccc2[nH]1)C(F)(F)F (stereo unspecified)	3187	-3.0	0	4	-5	-18	-19
CN(C)c1ccc(C2N(C(=O)N3CCOCC3)CCN2S(=O)(=O)c2ccccc2)cc1 (stereo unspecified)	5241	4.7	-2	0	10	-18	8
CNCCCC12CCC(c3ccccc31)c1ccccc12	5606&6051&6101	3.7&-1.8&1.7	-11&-18&-11	1&-2&0	7&-2&-5	4&8&-5	2&6&7
O=C(O)c1ccccc1Sc1c([N+](=O)[O-])cc(C(F)(F)F)cc1[N+](=O)[O-]	3853	-3.6	16	-1	13	-29	-10
NCCCCC(C(=O)N1CCNCC1)n1cc(C(N)CC(N)=O)nn1 (stereo unspecified)	.	-0.7	1	-3	10	.	.
CCCc1ccc2oc(C(=O)N3CCNC(=O)C3CC(=O)OC)c(C)c2c1 (stereo unspecified)	5522	2.4	8	7	-3	-21	0
CCNC(=O)C(=O)Nc1ccc2c(c1)N(S(=O)(=O)c1cccs1)CCC2	6490	4.7	-2	6	1	-7	10
CC(OC(=O)C1CCCO1)C(=O)NC1CCCC1 (stereo unspecified)	19071*	4.9	11	7	6	-19	-4
C=CCSc1ccccc1C(=O)Nc1ncn[nH]1	.	4.2	10	3	3	-54	5
COc1ccc(Br)c(/C=N/NC(=O)COc2ccc(-c3ccccc3)cc2)c1	3528	.	.	.	.	-22	1
COCCn1c(N)c(NCc2ccccc2)c(=O)[nH]c1=O	3767	0.9	5	1	3	-6	9
O=C(NC1CCCc2ccccc21)C1CCN(S(=O)(=O)c2ccccc2F)CC1 (stereo unspecified)	2248	-5.7	0	5	10	-13	3
CCCCc1ccc(N=N/C(C(=O)Nc2ccccc2OC)=C(/C)O)cc1	2331	-4.6	23	15	2	-12	-8
O=C(CC1OC(=O)c2ccccc21)Nc1cc(Cl)ccc1N1CCCC1 (stereo unspecified)	7104	6.5	-2	6	4	-10	-1
NC(=O)CC(NC(=O)c1ccc(Br)cc1)c1ccc(N2CCC(Cc3ccccc3)CC2)c([N+](=O)[O-])c1 (stereo unspecified)	3031	68	6	-10	0	-21	-5
COc1ccc(CCC(C)NC(=O)Cc2ccc(OC)c(OC)c2)c(OC)c1 (stereo unspecified)	2971	-0.7	2	6	-10	-20	5

By substructure: the compounds so far with a Cl atom.
SMILES	Bead autofluor	RN4220 kill	ugtP null kill	Mtb hypoxia inh	Mtb hypoxia inh growth	PrP UTR inh	BJeLR lethal
COc1ccc(Cl)cc1N(CC(=O)N1CCN(Cc2ccccc2)CC1)S(C)(=O)=O	3473	5.5	1	4	4	-4	0
CCOc1ncccc1C(=O)NCc1ccccc1Cl	3404	7.4	12	9	12	-5	-6
Clc1ccc(-n2nnnc2-c2cnc(-c3ccccn3)nc2-c2cccs2)cc1	8576	2.5	-6	4	7	-14	2
CCN(CC(=O)Nc1ccc(OC)cc1)C(=O)c1ccc(Cl)c(S(=O)(=O)N2CCCC2)c1	3471	2.9	5	2	-4	2	.
Cc1ccc(S(=O)(=O)n2nc(OC(=O)c3c(F)cccc3Cl)cc2N)cc1	5459	0.3	14	-1	4	-28	-20
O=C(Cc1cccs1)Nc1ccc(Cl)c(S(=O)(=O)N2CCOCC2)c1	.	2.1	-3	6	0	-12	.
CC(C)[C@H]1COCCS(=O)(=O)N1Cc1ccc(Cl)cc1	3893	-4.3	-4	5	8	-6	8
CC(C)C(=O)Nc1cccc(NC(=S)NC(=O)c2ccc(Cl)cc2)c1	10931	2.0	83*	1	6	-37	9
OC(CNCCc1ccc(Cl)cc1)COc1ccc2ccccc2c1 (stereo unspecified)	3312	2.5	-9	5	-5	-18	.
CCC1(C)Cc2c(sc3nnn(Cc4ccccc4Cl)c(=O)c23)CO1 (stereo unspecified)	20244*	-1.7	29	5	10	-12	1
COC(=O)CNC(=O)C(C)(C)Oc1ccc(Cl)cc1	3490	1.9	-1	4	7	-5	0
O=C(NCc1ccc2c(c1)OCO2)C1CC(=O)N(CCc2ccc(Cl)cc2)C1 (stereo unspecified)	5517	-4.4	10	-10	-18	-8	-6
O=C(CC1OC(=O)c2ccccc21)Nc1cc(Cl)ccc1N1CCCC1 (stereo unspecified)	7104	6.5	-2	6	4	-10	-1
